Hsc70 ATP site: Hsc70 inhibitors, probe displacement, primary screen, biochemical, fluorescence polarization (AID 568); Hsc70 fluorescence polarization, probe displacement; higher % means a stronger effect; strong numbers were not always called active; 83,000 tested, under 10 active; displacement, % at 20 µM, or IC50 in µM where a hit was titrated;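 active means displacement above 50% without optical interference and an IC50 on retest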;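 further: ATPase domain with a fluorescein-tagged ATP probe; 0% = vehicle and 100% = excess ADP; read after one hour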
MT1-MMP promoter: MT1-MMP gene expression reporter suppression – cell-based, luciferase reporter, luminescence (AID 618); calls from a first round at 10 µM; hits with a dose series show EC50 in µM; 0.62% of 87,000 active; MT1-MMP promoter luciferase reporter cells, luminescence;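 active means over half of the reporter light lost at 10 µM or EC50 under 50 µM; inactive means the rest and hits that failed the dose series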;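 further: actives suppress MT1-MMP promoter-driven transcription so potencies describe inhibitors; HT1080 fibrosarcoma cells; overnight exposure; toxic or luciferase-blocking compounds were not removed from the actives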
WNV protease inh: blocks West Nile virus NS2B-NS3 protease activity; WNV NS2B-NS3 protease, fluorogenic substrate Ex360/Em465; active compounds read low; AID 577; P06935; z-score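 (tested at a level between 10 and 100 µM)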; 0.18% of 65,000 active;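 active means z-score at -3 or under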;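 further: score is relative to mean and spread of the compound wells of a plate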
Target sequence (P06935 1371-1501 limits assumed): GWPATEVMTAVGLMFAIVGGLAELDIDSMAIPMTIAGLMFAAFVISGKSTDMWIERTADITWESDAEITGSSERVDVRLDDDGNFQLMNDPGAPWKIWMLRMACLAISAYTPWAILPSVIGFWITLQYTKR
Target sequence (P06935 1502-1679 limits assumed): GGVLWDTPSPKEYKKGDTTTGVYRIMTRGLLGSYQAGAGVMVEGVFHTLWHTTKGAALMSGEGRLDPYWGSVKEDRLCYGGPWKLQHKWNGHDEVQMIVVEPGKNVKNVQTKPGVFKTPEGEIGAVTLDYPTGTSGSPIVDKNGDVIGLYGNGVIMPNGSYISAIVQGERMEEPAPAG
* = called active by the depositor; i = inactive; · = no result given.

SMILES | Hsc70 ATP site | MT1-MMP promoter | WNV protease inh
CCOCC(=O)Nc1nc2ccc(C)cc2s1 | -1.3% | i | -1.4
Cn1nnnc1SCC(=O)Nc1nc(-c2ccccc2)c(-c2ccccc2)o1 | -2.4% | i | -0.35
Cc1cc(C)c2c(N)c(C(=O)N3CCCCCC3)sc2n1 | 0.2% | i | -0.15
COc1ccc(C(CNC(=O)c2ccc(-n3cnnn3)cc2)N2CCOCC2)cc1 (stereo unspecified) | -1.0% | i | -1.3
COC(=O)c1cc(OC)c(OC)c(OC)c1N | -0.9% | i | -0.82
COCC(C)NC(=O)c1noc2c1CCc1cc(OC)ccc1-2 (stereo unspecified) | -6.9% | i | -0.59
CC(=O)N(c1ccc2oc(=O)sc2c1)S(=O)(=O)c1ccccc1 | -5.3% | i | 1.6
CCCn1nnnc1SCC(=O)NCc1cccs1 | -2.0% | i | 0.37
CCOc1ccc(-c2ncncc2-c2ccc(OC)cc2)c(O)c1 | 3.0% | i | -1.3
COc1ccccc1C1C(C(=O)c2cc3ccccc3o2)=C(O)C(=O)N1CCN(C)C (stereo unspecified) | 0.8% | i | -0.41
O=C(c1ccco1)[C@@H]1[C@@H]2C(=O)N(c3ccc(Br)cc3)C(=O)[C@@H]2C2c3ccccc3C=CN21 (stereo partly specified) | 22% | i | -1.2
COc1ccccc1C(=O)Nc1cccc(SC)c1 | -1.2% | i | ·
Cn1c(=O)n(CCc2ccccc2)c(=O)c2c1nc1n2CCN1Cc1ccco1 | 0.8% | i | -0.51
CCC1CCCCN1CCCNC(=O)Cn1nc(-c2ccc(C)cc2)ccc1=O (stereo unspecified) | -5.0% | i | -0.3
CN(Cc1ccccc1)C(=O)CN1C(=O)C2C3C=CC(C3)C2C1=O (stereo unspecified) | 3.2% | i | ·
COc1ccc(C(=O)N2CCN(c3cccc(Cl)c3)CC2)cc1 | -0.6% | i | ·
CCCCC(c1nnnn1CS(=O)(=O)c1ccc(C)cc1)N1CCN(c2ccccc2)CC1 (stereo unspecified) | -4.9% | i | -1.1
O=C(c1nc2n(n1)C(c1ccc(Cl)cc1)C=C(c1ccccc1)N2)N1CCOCC1 (stereo unspecified) | 76% | i | 0.6
COc1cccc2cc(C(=O)NC3CC(C)(C)NC(C)(C)C3)c(=O)oc12 | 1.2% | i | 2.3
COc1ccc(C(NC(=O)C(C)(C)C)NC(=O)C(C)(C)C)cc1 | -0.6% | i | -0.6
CCN1CCN(C(=O)Nc2cccc(C(F)(F)F)c2)CC1 | 4.7% | i | -0.49
COc1ccccc1N(CC(=O)Nc1ccc2c(c1)OCCO2)S(C)(=O)=O | 1.3% | i | 1.6
CC(=O)c1c(C)[nH]c(C(=O)OCC(=O)Nc2cc(C(F)(F)F)ccc2N2CCOCC2)c1C | 14% | i | 3
COc1cc(-c2nnc(-c3cccs3)o2)cc(OC)c1OC | -2.6% | i | 0.04
c1cc(CNc2ccc3c(c2)OCO3)ccn1 | 14% | i | 0.14
CC(=O)c1oc2ccccc2c1NC(=O)COC(=O)c1ccc(-n2nc(C)cc2C)cc1 | -2.3% | i | 0.55
CCOc1ccc(S(=O)(=O)Nc2ccccc2C(=O)NCC2CCCO2)cc1 (stereo unspecified) | 0.5% | i | -0.61
Cc1noc(C)c1S(=O)(=O)N(CC(=O)N1CCCC1)c1ccc(C(C)C)cc1 | -0.5% | i | 0.78
Cc1cc(NC(=O)COC(=O)COc2ccc(C(=O)c3ccccc3)cc2)no1 | 3.8% | i | -1.2
O=C(Oc1ccc2c(c1)C(=O)c1ccccc1CO2)c1ccccc1 | 6.1% | i | ·
O=C(CN1CCN(c2ccc(F)cc2)CC1)N1CCC(Cc2ccccc2)CC1 | 3.1% | i | -0.5
CCOC(=O)C1CCCN(c2nc3ccccc3nc2C(C#N)C(=O)NCc2ccccc2)C1 (stereo unspecified) | 31% | i | 0.48
CCCCn1c(SCC(=O)c2ccc(OC)cc2OC)nc2cc(S(N)(=O)=O)ccc21 | -5.7% | i | -1.1
CCNC(=O)c1sc(-c2ccccc2)nc1C | -6.4% | i | -1.7
CCOC(=O)c1oc2ccccc2c1NC(=O)C1CCCCC1 | -1.8% | i | 0.98
COc1ccc2oc(C)c(NC(C)=O)c2c1 | 2.9% | i | -0.59
COc1ccc(C(=O)c2oc3ccc(Br)cc3c2NC(C)=O)cc1 | -0.4% | i | -3*
CC1CCc2c(sc3ncnc(SCC(=O)N4CCN(C(=O)c5ccco5)CC4)c23)C1 (stereo unspecified) | 5.7% | i | 0.35
O=C(CN1CCC(n2nnc3cc(F)ccc32)CC1)NC1CCCCC1 | -3.9% | i | 0.48
O=C(OCn1nnc2ccccc2c1=O)c1ccc2ccccc2n1 | 12% | i | 0.64
COCCNC(=O)c1ccccc1NC(=O)COc1ccccc1 | 8.1% | i | -0.39
Cc1ccc(C)c(N2CCN(C(=O)C3CCN(S(=O)(=O)c4c(C)noc4C)CC3)CC2)c1 | 3.0% | i | -0.85
O=C(Nc1ccc2oc(=O)ccc2c1)c1cccnc1 | 3.2% | i | -0.29
O=C(NC1CC1)C1=NOC(CNc2ncc(C(F)(F)F)cc2Cl)C1 (stereo unspecified) | 3.6% | i | ·
COC(=O)CP(=O)(c1ccccc1)c1ccccc1 | 1.4% | i | ·
CCOc1c(Br)cc(C2NS(=O)(=O)N=C3CCCCCN32)cc1OC (stereo unspecified) | 7.0% | i | -1
COC(=O)CCN(C(=O)c1ccc2c(c1)OCO2)c1ccccn1 | 4.9% | i | 0.54
CCn1cnc2cc(NCc3nc4ccccc4n3C)ccc21 | 6.4% | i | -0.92
Cc1onc(-c2ccccc2Cl)c1C(=O)Nc1ccc(OCC(=O)N2CCOCC2)cc1 | 5.6% | i | -0.76
COc1ccc(NC(=O)N2CCN(c3cccc(C(F)(F)F)c3)CC2)cc1 | 5.1% | i | -0.09

More compounds:
SMILES | Hsc70 ATP site | MT1-MMP promoter | WNV protease inh
CCOc1ccccc1Nc1nc2ccccc2n2cnnc12 | 0.7% | i | 0.82
Cn1c(=O)[nH]c(=O)c2c1nc(Sc1nc3ccccc3s1)n2Cc1ccccc1 | -2.8% | i | 0.82
CCCCOc1ccc(C2CC(=O)N(C)C2=O)cc1 (stereo unspecified) | -9.5% | i | 0.06
COc1ccc(CNS(=O)(=O)c2cccc(S(=O)(=O)N3CCOCC3)c2)cc1 | 3.2% | i | ·
COc1ccc(/C=C/C(=O)Nc2c(C)nn(C)c2C)cc1COc1ccc(Br)cc1 | -2.4% | i | ·
COCCn1c(SCc2ccccc2Cl)nc2c1c(=O)[nH]c(=O)n2C | -0.9% | i | -0.98
CCCNS(=O)(=O)c1ccc(OCC(=O)N2CCC(C(=O)OCC)CC2)cc1 | 4.2% | i | -1.1
Nc1n[nH]c(-c2ccccc2)n1 | -1.5% | i | ·
CCOc1ccccc1N1CSC2=C(C#N)C(c3c(OC)ccc4ccccc34)CC(=O)N2C1 (stereo unspecified) | -5.1% | i | -0.1
CN1/C(=C\C(=O)Nc2cccnc2)c2ccccc2CC1(C)C | -2.9% | i | -0.56
OC1CCN(Cc2cccc(Oc3ccccc3)c2)CC1 | 2.9% | i | -0.61
CC(C)CN1C(=O)/C(=C/c2cccs2)NC1=S | 1.7% | i | ·
CCOC(=O)N1CCC(NC(=O)C2CCCN(C(=O)c3cc4sccc4n3C)C2)CC1 (stereo unspecified) | 5.4% | i | -0.07
CCCn1c(SCC(=O)c2cc(OC)ccc2OC)nnc1-c1ccco1 | -1.2% | i | -0.74
Cn1nnnc1SCC(=O)N1c2ccccc2CCc2ccccc21 | -1.1% | i | 0.18
O=C(Nc1nccs1)C1CC2CCC1C2 (stereo unspecified) | -10% | i | ·
Cc1cc(C)c2oc(=O)cc(CN3CCN(Cc4ccc5c(c4)OCO5)CC3)c2c1 | -3.6% | i | 0.36
COc1ccc(-c2nn3c(-c4ccncc4)nnc3s2)cc1OC | 4.2% | i | -0.32
CCOC(=O)CSc1nnc(CNC(=O)c2cccs2)n1-c1ccccc1 | 0.1% | i | 0.93
Cc1ccc2c(CN3CCN(Cc4ccc5c(c4)OCO5)CC3)cc(=O)oc2c1C | -4.4% | i | -0.35
CC(C)C(C(=O)N1CCOCC1)N1C(=O)c2ccccc2C1=O (stereo unspecified) | -1.0% | i | -0.7
N#Cc1cccc(NC(=O)CSc2ccccc2)c1 | -1.9% | i | 0.67
CCN(CC)CCCNC(=O)C1CCN(C(=O)c2cc3sccc3n2Cc2ccc(F)cc2)CC1 | 3.8% | i | -1
CCCCCNc1c(C(=O)OCC)c(=O)[nH]c2ccccc12 | 5.2% | i | -0.05
COc1ccc(NC(=O)c2ccc3nccnc3c2)cc1 | 2.1% | i | ·
COc1ccc(Cl)c(N2CCN(CCCNC(=O)Nc3ccc(C)cc3)CC2)c1 | -0.3% | i | 0.03
COc1cc2cc(C(c3nnnn3C3CCCC3)N(C)C3CCCCC3)c(=O)[nH]c2cc1OC (stereo unspecified) | -1.6% | i | -1.3
c1ccc(C(c2ccccc2)N2CCN(Cc3nnnn3C3CCCCC3)CC2)cc1 | 1.1% | i | ·
CCN1C2=C(C(=O)CCC2)C(c2ccc(O)cc2)C2=C1CCCC2=O | 1.1% | i | -0.08
O=C1CC(N2CCC(c3nc4ccccc4o3)CC2)C(=O)N1Cc1cccs1 (stereo unspecified) | 10% | i | 0.06
CCCN1CCN(CCCNC(=O)CN2C(=O)COc3ccccc32)CC1 | -1.2% | i | -0.44
Cc1ccc(CNC(=O)c2ccc(Br)o2)cc1 | 2.8% | i | -1
CC(=O)Nc1ccc(S(=O)(=O)N2CCC(n3cnc4cc(F)ccc43)CC2)cc1 | 1.1% | i | -0.88
Cn1c(-c2ccc(Br)o2)nc2cc(Br)ccc21 | -4.7% | i | 0.18
COc1ccc(C(C(O)C(=O)c2c[nH]c3ccccc23)N2CCN(c3ccccc3)CC2)cc1 (stereo unspecified) | -2.4% | i | -0.52
Cc1c(C(=O)N2CCCC2)nnn1-c1nonc1N | 0.0% | i | 0.91
Cc1ccc(-c2nn3c(-c4ccco4)nnc3c3ccccc23)cc1S(=O)(=O)NCC1CCCO1 (stereo unspecified) | 1.0% | i | -0.29
CC(=O)c1ccc(S(=O)(=O)N2CCCC2)cc1 | 0.7% | i | ·
O=C(Nc1cccc(N2CCCC2)c1)c1cccs1 | 1.0% | i | 1.8
CCN(CC)C1=CC(=O)OC12CCCCC2 | -6.4% | i | 3
O=c1[nH]c(Cc2cccs2)nc2ccccc12 | -1.6% | i | 0.24
O=C(Nc1c2c(nn1-c1ccc(F)cc1)CS(=O)(=O)C2)C12CC3CC(CC(C3)C1)C2 | -4.3% | i | 0.06
CCOc1cc2[nH]c(=S)n(CCCC(=O)NCc3ccco3)c(=O)c2cc1OCC | -7.9% | i | -1.3
O=C(c1ccccc1)N1CCN(C2CCCCCC2)CC1 | 1.3% | i | 0.53
COc1cc(OC)cc(C(=O)Nc2cc(NC(=O)c3ccco3)ccc2OC)c1 | 0.7% | i | -0.08
COC(=O)c1cc(-c2ccccc2)n[nH]1 | -3.9% | i | 0.33
O=C(NCCOC(=O)c1ccc(Cl)c(S(=O)(=O)N2CCCCC2)c1)c1ccncc1 | -0.6% | i | 1.7
O=C(NCc1ccccc1)c1c[nH]c2cc3c(cc2c1=O)OCCO3 | -3.5% | i | ·
CC(C)(C)c1cc(NC(=O)c2cc(F)c(F)c(F)c2F)no1 | -3.8% | i | -0.63
C=CCOc1ccc(C2c3c(oc4ccccc4c3=O)C(=O)N2CCCN2CCOCC2)cc1 (stereo unspecified) | 3.8% | i | 0.66

Quoted at random: four records from the list
SMILES | Hsc70 ATP site | MT1-MMP promoter | WNV protease inh
O=C(NCCOC(=O)c1ccc(Cl)c(S(=O)(=O)N2CCCCC2)c1)c1ccncc1 | -0.6% | i | 1.7
O=C(Nc1c2c(nn1-c1ccc(F)cc1)CS(=O)(=O)C2)C12CC3CC(CC(C3)C1)C2 | -4.3% | i | 0.06
O=C(NCc1ccccc1)c1c[nH]c2cc3c(cc2c1=O)OCCO3 | -3.5% | i | ·
O=C(c1ccccc1)N1CCN(C2CCCCCC2)CC1 | 1.3% | i | 0.53

Given with two lines to a compound: 4 of the compounds above
Values run as follows: Hsc70 ATP site | MT1-MMP promoter | WNV protease inh
> COc1cc(OC)cc(C(=O)Nc2cc(NC(=O)c3ccco3)ccc2OC)c1
    0.7% | i | -0.08
> COC(=O)c1cc(-c2ccccc2)n[nH]1
    -3.9% | i | 0.33
> O=C(NCCOC(=O)c1ccc(Cl)c(S(=O)(=O)N2CCCCC2)c1)c1ccncc1
    -0.6% | i | 1.7
> O=C(NCc1ccccc1)c1c[nH]c2cc3c(cc2c1=O)OCCO3
    -3.5% | i | ·

Later entries.
SMILES | Hsc70 ATP site | MT1-MMP promoter | WNV protease inh
O=C(c1cc(-c2ccc(Cl)cc2Cl)on1)N1CCN(C(=O)c2ccco2)CC1 | 1.7% | i | ·
COc1ccc(C)cc1NC(=O)CCN1CCCC1 | 4.9% | i | -0.13
COc1ccccc1N1CCN(C(=O)CSc2nnc(NC(=O)C3CC3)s2)CC1 | 2.0% | i | 0.8
O=C(O)C1CCN(C(=O)c2ccccc2Cl)CC1 | 0.6% | i | ·

Whole records as entered above. Order of values: Hsc70 ATP site | MT1-MMP promoter | WNV protease inh
COc1ccc(C)cc1NC(=O)CCN1CCCC1 across the screens: 4.9% | i | -0.13
O=C(c1cc(-c2ccc(Cl)cc2Cl)on1)N1CCN(C(=O)c2ccco2)CC1 across the screens: 1.7% | i | ·

High-throughput results (PubChem)
